GLA inh pH 4.5: alpha-galactosidase A (human) inhibition, pH 4.5; P06280; purified enzyme, 4-MU-alpha-Gal fluorescence, pH 4.5; activity change, negative = inhibition, % at 105 µM; 230,000 tested, under 10 active; AID 1467; inconclusive = small, poorly fitted or top-dose-only inhibition, or a rising curve; inactive = flat fitted curve, though single readings scatter; no compound was filed as active;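 note: 0% = full activity with enzyme and -100% = basal without enzyme; dose as in the result columns while the protocol names 77 µM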
miR-21 FLuc: raises the signal of a miR-21 reporter | HeLa miR-21 FLuc reporter, luciferase, 48 h | Potency, µM (series often up to 38.3 µM), inactives show at the highest dose reporter change, positive = more light | 340,000 tested, under 10 active | AID 2288; active = well fitted rising curve with a large enough effect; inconclusive = small, poorly fitted or top-dose-only effect; inactive = no such curve, though single readings can be large or run the other way;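 note: % of control where 0% means no effect; miR-21 action dims this reporter so a rising signal means less miR-21 action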
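Luminescence from a firefly luciferase reporter carrying a miR-21 binding site downstream, stably expressed under a CMV promoter in HeLa cells that make miR-21 endogenously, reports miRNA modulation after 48 h compound exposure up to approximately 40uM final.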
Rango complex inh: inhibitors of Rango-importin beta complex formation; 340,000 compounds, 0.031% hits; Potency, µM (highest dose often 92.2 µM), inactives show top-dose inhibition of complex formation; Rango CFP/YFP FRET sensor + importin beta, 45 min; Q14974; active = rising FRET ratio curve, often small or poorly fitted; inconclusive = mostly compound fluorescence or quenching in the first reads; inactive = flat curves in all reads;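 note: potency is the fitted concentration of half-maximal effect; 0% = DMSO wells and 100% = buffer wells lacking importin beta; nearly all actives have a fitted effect of over 15% in size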
Target sequence (Q14974 whole entry, looked up): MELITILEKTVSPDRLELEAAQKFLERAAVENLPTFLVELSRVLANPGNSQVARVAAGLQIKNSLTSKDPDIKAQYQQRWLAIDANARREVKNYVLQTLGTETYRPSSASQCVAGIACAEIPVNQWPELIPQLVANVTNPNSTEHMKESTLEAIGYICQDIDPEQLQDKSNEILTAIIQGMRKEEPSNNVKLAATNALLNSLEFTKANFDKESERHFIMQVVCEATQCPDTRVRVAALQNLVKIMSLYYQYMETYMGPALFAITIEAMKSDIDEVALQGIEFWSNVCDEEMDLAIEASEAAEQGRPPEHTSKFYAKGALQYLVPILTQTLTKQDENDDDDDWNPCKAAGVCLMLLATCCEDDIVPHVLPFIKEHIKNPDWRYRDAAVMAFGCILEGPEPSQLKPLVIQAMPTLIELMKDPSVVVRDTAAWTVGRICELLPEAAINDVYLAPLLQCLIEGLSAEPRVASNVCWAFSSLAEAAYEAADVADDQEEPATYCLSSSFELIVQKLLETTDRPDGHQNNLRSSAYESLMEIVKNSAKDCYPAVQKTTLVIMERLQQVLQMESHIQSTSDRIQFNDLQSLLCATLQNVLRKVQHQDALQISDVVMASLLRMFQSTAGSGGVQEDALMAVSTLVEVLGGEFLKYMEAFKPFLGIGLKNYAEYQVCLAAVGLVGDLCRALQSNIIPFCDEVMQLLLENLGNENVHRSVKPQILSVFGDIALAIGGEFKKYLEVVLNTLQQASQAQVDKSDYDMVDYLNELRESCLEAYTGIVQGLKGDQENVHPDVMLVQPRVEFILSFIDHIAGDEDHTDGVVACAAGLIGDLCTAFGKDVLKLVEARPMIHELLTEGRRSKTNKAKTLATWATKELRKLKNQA
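FRET biosensor (snurportin 1 IBB flanked by EYFP and cerulean), 50 nM, with compound 5 min, then 0.125 microM importin beta in PBS, 1 mM DTT, 0.02% Tween-20, 0.1% BSA. CFP/YFP ratio read after 45 min at room temperature; pre-read flags interference.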
Rango release inh: inhibition of RanGTP-driven Rango-importin beta dissociation | O95149+P62826 | Biochemical FRET Rango-importin beta, RanGTP-induced dissociation | Potency, µM (doses to about 46.1 µM), inactives show top-dose activity change, negative = inhibition | 340,000 compounds, 0.071% hits; active means falling FRET ratio curve, often poorly fitted, with flat reads before Ran was added; inconclusive means other falling curves, or compound fluorescence or quenching; inactive means flat or rising ratio curve;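 note: potency is the fitted concentration of half-maximal effect; % of control where 0% means no effect; nearly all actives have a fitted effect of over 45% in size; -100% = wells without RanGTP and RCC1; the record marks most hits as doubtful in a second field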
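Compounds preincubate 5 min with complex of recombinant Rango and importin beta in PBS with 1 mM DTT. Ran (0.6 uM) loaded with 2 mM GTP plus 0.2 uM RCC1 starts dissociation; FRET is recorded 45 min later.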
The depositor's hits bear a star; ? = inconclusive; . = no result given; & = joins results of further samples. Some of the compounds tested, so the mix of outcomes need not match the whole.

GLA inh pH 4.5	miR-21 FLuc	Rango complex inh	SMILES	Rango release inh
.	1%	1.0%	Cc1ccccc1NC(=O)NCCCN1CCN(C)CC1	-11%
5	-7%	-2.4%	Cc1occc1C(=O)N1CCN(c2ccccc2)CC1	-18%
5	-1%	?	CC(NC(=O)C1CCCCC1)C(c1cccs1)N1CCN(C)CC1 (stereo not given)	-9%
2	-4%	0.9%	O=C(Nc1ccncc1)c1cccc(F)c1	3%
2	7%	7.2%	O=C(Nc1ccc(N2CCOCC2)cc1)C1CC(=O)N(c2ccc(F)cc2)C1 (stereo not given)	-2%
5	7%	0.5%	CCCCOc1ccc(S(=O)(=O)NCc2csc(C)n2)cc1	-1%
.	.	-0.4%	CCC(=O)c1ccc(OCC(=O)OC(C)C(=O)Nc2c(C)n(C)n(-c3ccccc3)c2=O)cc1 (stereo not given)	25%
.	1%	0.4%	O=C(c1ccc(S(=O)(=O)N2CCCC2)cc1)N1CCN(c2ccccc2F)CC1	0%
.	9%	-0.5%	Cc1onc(-c2ccccc2Cl)c1C(=O)N1CCCC1	-15%
5	0%	0.3%	CCOC(=O)N1CCc2c(sc3nc4n(c(=O)c23)N=C(C)CS4)C1	-8%
-1	0%	-0.1%	CCOC(=O)C1=C(C)OC(N)=C(C#N)C1c1c(C)nn(-c2ccccc2)c1Cl (stereo not given)	33%
.	-18%	-2.9%	Cc1ccc(NS(=O)(=O)c2cc(-c3cc(C)no3)ccc2C(C)C)nc1	5%
.	-1%	0.1%	O=C(COc1ccccc1)NS(=O)(=O)c1ccccc1	12%
.	-5%	2.0%	O=C(Nc1ccc(F)cc1)c1cccc2c1C(=O)N(CC1CCCO1)C2 (stereo not given)	3%
.	2%	-1.4%	CN(CC(=O)NCc1ccco1)S(=O)(=O)c1ccc(F)cc1	-9%
.	-4%	2.1%	COc1ccc(CNC(=O)CN(C(=O)CCC(=O)Nc2ccccn2)c2ccc3c(c2)OCO3)cc1	-7%
.	.	-4.2%	CCC1CCC2(CC1)NC(=O)N(CC(=O)N1CCc3ccccc31)C2=O (stereo not given)	-21%
5	0%	-0.2%	CCc1nc2ccccc2c(C(=O)OC2CCOC2=O)c1C (stereo not given)	7%
7	-68%	3.6%	O=C(NCC1CCCO1)c1sc2ccccc2c1Cl (stereo not given)	10%
-8	-9%	-0.3%	Nc1c(C(=O)c2ccc(Cl)cc2)sc2c1c(=O)[nH]c(=O)n2-c1ccccc1	3%
.	.	-0.8%	COc1ccc(NS(=O)(=O)c2cc(C(=O)N3CCC3)ccc2C)cc1	3%
12	-5%	.	CC(C)CNC(=O)CC(NCC(C)C)C(=O)O (stereo not given)	.
.	1%	1.6%	CNC(=O)c1cc(S(=O)(=O)Nc2ccc3c(c2)OCCO3)ccc1C	-4%
-1	-15%	1.7%	Cc1ccc(C(=O)Nc2ccc(O)c(C(=O)O)c2)o1	2%
5	-8%	-5.1%	CCc1ccccc1OCC(=O)NC1CCCC1	5%

Complete entries, looked up by structure:
CC(C)CNC(=O)CC(NCC(C)C)C(=O)O (stereo not given) reads GLA inh pH 4.5: 12; miR-21 FLuc: -5%; Rango complex inh: .; Rango release inh: .
O=C(Nc1ccncc1)c1cccc(F)c1 reads GLA inh pH 4.5: 2; miR-21 FLuc: -4%; Rango complex inh: 0.9%; Rango release inh: 3%

Remaining list, next part.
GLA inh pH 4.5	miR-21 FLuc	Rango complex inh	SMILES	Rango release inh
7	-5%	-1.6%	O=C(CSc1ccc2c(c1)OCCO2)NCC1CCCO1 (stereo not given)	1%
.	-17%	-4.9%	O=C1c2cccc3cccc(c23)C(=O)N1c1ccc(O)cc1	1%
.	-1%	-5.0%	NS(=O)(=O)c1ccc(NS(=O)(=O)c2ccc(Br)cc2)cc1	13%
-2	-1%	0.9%	CS(=O)(=O)NC1CCN(Cc2ccccc2)CC1	0%
-2	4%	3.6%	O=C1C(Cl)=C(N2CCOCC2)C(=O)N1c1ccccc1	-14%
2	-56%	-0.9%	Cc1occc1C(=O)NNC(=S)Nc1ccccc1	-2%
3	-13%	0.1%	Cc1cc(C)n(-c2nc(NCCC(C)C)c3c4c(sc3n2)COC(C)(C)C4)n1	8%
-4	10%	-1.1%	CN(C)S(=O)(=O)c1cccc(NC(=O)CCSc2ccc(Cl)cc2)c1	-5%
-2	-20%	-1.9%	Cc1c(NC(=O)C(c2ccccc2)c2ccccc2)cccc1C(=O)O	0%
.	.	-0.8%	N#CCSc1ccccc1NC(=O)COC(=O)Cc1c[nH]c2ccccc12	-23%
.	.	-3.7%	COc1cccc(COC(=O)C2CCN(S(=O)(=O)c3ccc(C)cc3C)CC2)c1OC	-10%
0	-10%	-0.6%	CC(=O)Nc1ccc(OS(=O)(=O)c2ccccc2C)cc1	?
3	-1%	-2.8%	CCNC(=S)NNC(=O)c1cc(C)on1	4%
6	-33%	-0.2%	Cc1ccc(-c2nc(C3CCN(S(C)(=O)=O)CC3)no2)cc1	6%
.	.	0.8%	O=C(CNC(=O)c1ccc(Cl)cc1Cl)OCc1nnc(-c2ccccc2)o1	-5%
-4	-4%	0.9%	CC(=O)c1cccc(NC(=O)COC(=O)COc2c(Cl)cc(Cl)c3ccc(C)nc23)c1	-1%
.	4%	0.0%	COc1ccccc1NC(=O)CN1CCOCC1	-8%
4	-11%	-3.2%	CCn1c(=O)n(Cc2ccco2)c(=N)c2c3c(sc21)COC(C)(C)C3	5%
-17	7%	-0.6%	O=c1c2cn[nH]c2nc(SCc2cc(=O)n3cc(Br)ccc3n2)n1-c1ccc(Br)cc1	1%
7	-4%	-2.4%	O=c1c2cc3c(cc2[nH]c(=S)n1CCN1CCOCC1)OCO3	18%
-11	0%	-1.0%	CC(=O)C1=C(c2ccccc2)NC(=S)NC1c1cc(Cl)c(OC(C)C)c(Cl)c1 (stereo not given)	11%
3	8%	3.3%	O=C(Nc1ccc(Oc2c(F)c(F)c(F)c(F)c2F)cc1)OC1CCN2Cc3ccccc3N=C12 (stereo not given)	1%
8	5%	-3.3%	COc1cccc2sc(Nc3nnc(-c4ccc(F)cc4)o3)nc12	-18%
5	-6%	-0.4%	Cc1ccc(OCC(=O)N/N=C\c2cn(C)c3ccccc23)c([N+](=O)[O-])c1	2%
5	-1%	-0.3%	CCOC(=O)C1CCN(C(=O)Cn2cc(C(=O)c3ccco3)c3ccccc32)CC1	12%

Sorted by the number under GLA inh pH 4.5 (rising): some entries from above.
GLA inh pH 4.5	miR-21 FLuc	Rango complex inh	SMILES	Rango release inh
-8	-9%	-0.3%	Nc1c(C(=O)c2ccc(Cl)cc2)sc2c1c(=O)[nH]c(=O)n2-c1ccccc1	3%
-2	4%	3.6%	O=C1C(Cl)=C(N2CCOCC2)C(=O)N1c1ccccc1	-14%
5	0%	-0.2%	CCc1nc2ccccc2c(C(=O)OC2CCOC2=O)c1C (stereo not given)	7%

(cont.)
GLA inh pH 4.5	miR-21 FLuc	Rango complex inh	SMILES	Rango release inh
1	-16%	-0.3%	CNC(=S)NNC(=O)c1sccc1C	-5%
12	-6%	-2.1%	CCOC(=O)C1=C(CSc2nncn2C)NC(=O)NC1c1cc(OCC)ccc1OCC (stereo not given)	-8%
5	10%	0.0%	CCC(=O)Nc1nnc(SCC(=O)NCCc2ccc(OC)c(OC)c2)s1	14%
7	7%	0.3%	CN1C(C(=O)NCc2ccccc2)CC2Cn3c(nc4cc5ccccc5cc43)C21 (stereo not given)	-10%
?	-6%	-4.1%	O=C(COC(=O)CNS(=O)(=O)/C=C/c1ccccc1)Nc1cc(S(=O)(=O)N2CCCCC2)ccc1Cl	-1%
0	5%	2.4%	COc1cc(CCC(=O)OCC(=O)Nc2c(C)cc(C)cc2C)cc(OC)c1OC	-2%
.	.	?	COc1cc(/C=C/C(=O)OCC(=O)NCc2ccccc2OC)ccc1O	?
3	-7%	2.9%	COc1ccccc1NS(=O)(=O)c1ccc(Cl)c(NC(=O)CN2C(=O)c3ccccc3C2=O)c1	2%
-4	0%	-2.1%	COc1cccc(NC(=O)CSc2ncnc3c2cnn3Cc2ccccc2)c1	7%
1	2%	0.1%	COC(=O)c1ccncc1C(=O)Nc1ccc(OC)cc1	-2%
.	.	0.7%	O=C(COC(=O)/C=C/c1ccccc1Cl)Nc1cccnc1Cl	-15%
-1	8%	0.5%	Cc1c(CCO)c(=O)[nH]n1C(=O)c1c(F)cccc1F	-1%
.	-9%	-3.7%	Cc1cc(N2CCN(C)CC2)nc2ccc(NC(=O)CCC3CCCC3)cc12	6%
-14	-23%	?	Cc1c(N=C2NC(=O)/C(=C/c3ccc(O)cc3)S2)c(=O)n(-c2ccccc2)n1C	?
.	-2%	-2.3%	CCOc1ccc(NC(=O)CSc2nnc(Cc3csc(C)n3)o2)cc1	-1%
.	.	-2.3%	Cc1cccc(C(=O)OCC(=O)NNC(=O)c2cccs2)c1O	-19%
9	-3%	-5.1%	COc1ccc(C2C(C(=O)OCC(=O)N3CCCCC3)CCC(=O)N2c2ccc(OC)cc2)cc1 (stereo not given)	-9%
.	-55%	4.2%	Cc1ccc(NC(=O)n2ncc3c(C)cccc32)cc1F	18%
0	-41%	-3.7%	CCN(CC)S(=O)(=O)c1ccc(Nc2nc3ccccc3n3nnnc23)cc1	-20%
6	-4%	0.1%	COc1cccc(CN2CCN(C(=O)c3cc(-c4ccccn4)nc4ccc(Cl)cc34)CC2)c1	?
.	-62%	0.8%	c1ccc(Nc2nc(-c3ccccc3)ns2)cc1	15%
.	-23%	-1.3%	O=C(NCCCNC(=O)c1ccc(-c2cccc(Cl)c2)o1)c1cnccn1	-18%
-6	-5%	-0.9%	O=S(=O)(NCC1CCCO1)c1ccc(S(=O)(=O)N2CCc3ccccc3C2)cc1 (stereo not given)	10%
.	15%	0.7%	CCOc1ccc(NC(=O)C2CCN(C(=O)N3CCOc4ccccc43)CC2)cc1	9%
0	-6%	0.6%	O=C(O)C1Cc2ccccc2CN1S(=O)(=O)c1ccc2ccccc2c1 (stereo not given)	-19%
7	-41%	-2.4%	Clc1ccc(SCc2cn3cccnc3n2)cc1	8%
.	-1%	1.8%	CCCn1c(=O)c2ccccc2n2c(SC(C)C(N)=O)nnc12 (stereo not given)	-7%
-9	13%&17%	-0.9%	CCN(CC)c1ccc(NC(=O)CN2CCN(S(=O)(=O)c3cc(Cl)ccc3OC)CC2)cc1	0%
-6	-53%	-2.7%	O=C(Nc1ccccc1)c1cc2ccc3ccccc3c2s1	-1%
-2	1%	-0.7%	CC(=O)Nc1ccc2nc(-c3ccncc3)[nH]c2c1	-10%
2	-2%	0.0%	O=S(=O)(Nc1ccc(S(=O)(=O)N2CCOCC2)cc1)c1ccccc1	-6%
0	1%	-1.4%	Cc1ccc([N+](=O)[O-])c2c1C(N1CCCCC1)C(C)(C)O2 (stereo not given)	?
.	0%	3.1%	COc1ccc(OCC(=O)NC(=S)Nc2ccc(S(=O)(=O)Nc3cc(C)on3)cc2)cc1	-4%
-7	-1%	-0.9%	CN(C(=O)COC(=O)c1cnc(Cl)c(Cl)c1)C1CCS(=O)(=O)C1 (stereo not given)	6%
.	.	-0.5%	COC(=O)[C@@H](Cc1c[nH]c2ccccc12)NCc1cccc(B(O)O)c1	0%
.	.	1.9%	Cc1ccc(NC(=O)c2ccccc2F)c(NC(=O)c2ccccc2F)c1	-10%
-2	1%	?	O=C(CC1C(=O)NCCN1Cc1cccc(Oc2ccccc2)c1)NCCc1cscn1 (stereo not given)	-8%
.	7%	-7.8%	Cc1cc(C)cc(OC(C)C(=O)Nc2ccccc2C(=O)NCc2cccnc2)c1 (stereo not given)	27%
1	1%	-0.4%	CCC(C(=O)OCCOCCN(CC)CC)c1ccccc1 (stereo not given)	-13%
4	0%	0.0%	Cc1ccc(S(=O)(=O)Nc2nsc(N)n2)cc1	20%
10	-4%	3.1%	COc1ccc(N2CCN(S(=O)(=O)Cc3ccccc3)CC2)cc1	-5%
-16	-4%	6.7%	CC(C)CNc1ncnc2c1sc1nc(N3CCOCC3)c3c(c12)CC(C)(C)OC3	21%

From PubChem BioAssay
